Mtb bLac sens = beta-lactam sensitization of Mtb H37Rv; M. tuberculosis H37Rv growth with meropenem, percent inhibition; hits of this screen are not shown here; inhibition, % at 25 µM; hit rate 0.27% among 330,000; AID 434955;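 active = about 74% or more and at least 40 points above the plate without the antibiotic, then above 30% in a dose series; inconclusive = first-round hits that could not be retested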;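 note: growth measured after seven days incubation then overnight dye step; 0% = bacteria only wells and 100% = bacteria with antibiotic; twin plates without the antibiotic show which effects depend on it; some results filed as inactive read as strong as hits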
Arbovirus anti = blocks arbovirus infection; arbovirus infection cell-based antiviral screen; inhibition, % at 10 µM; hit rate 0.37% among 200,000; AID 1251;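 active = inhibition from about 30%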;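 note: bluetongue infection of BSR cells; cell survival read as ATP light after 72 h; 0% = infected wells without compound and 100% = uninfected wells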
RecA splice inh = inhibitors of M. tuberculosis RecA intein splicing | AID 2221 | hit rate 0.75% among 290,000 | cell-free RecA intein splicing, fluorescence | inhibition, %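 (about 9 µM by stock and volumes)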 | P9WHJ3; in the data active = inhibition above about 30%; inconclusive = no clear call, values can overlap the other calls;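 note: 0% = vehicle wells and 100% = reference inhibitor control wells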
Target sequence (P9WHJ3 whole entry, looked up, canonical isoform): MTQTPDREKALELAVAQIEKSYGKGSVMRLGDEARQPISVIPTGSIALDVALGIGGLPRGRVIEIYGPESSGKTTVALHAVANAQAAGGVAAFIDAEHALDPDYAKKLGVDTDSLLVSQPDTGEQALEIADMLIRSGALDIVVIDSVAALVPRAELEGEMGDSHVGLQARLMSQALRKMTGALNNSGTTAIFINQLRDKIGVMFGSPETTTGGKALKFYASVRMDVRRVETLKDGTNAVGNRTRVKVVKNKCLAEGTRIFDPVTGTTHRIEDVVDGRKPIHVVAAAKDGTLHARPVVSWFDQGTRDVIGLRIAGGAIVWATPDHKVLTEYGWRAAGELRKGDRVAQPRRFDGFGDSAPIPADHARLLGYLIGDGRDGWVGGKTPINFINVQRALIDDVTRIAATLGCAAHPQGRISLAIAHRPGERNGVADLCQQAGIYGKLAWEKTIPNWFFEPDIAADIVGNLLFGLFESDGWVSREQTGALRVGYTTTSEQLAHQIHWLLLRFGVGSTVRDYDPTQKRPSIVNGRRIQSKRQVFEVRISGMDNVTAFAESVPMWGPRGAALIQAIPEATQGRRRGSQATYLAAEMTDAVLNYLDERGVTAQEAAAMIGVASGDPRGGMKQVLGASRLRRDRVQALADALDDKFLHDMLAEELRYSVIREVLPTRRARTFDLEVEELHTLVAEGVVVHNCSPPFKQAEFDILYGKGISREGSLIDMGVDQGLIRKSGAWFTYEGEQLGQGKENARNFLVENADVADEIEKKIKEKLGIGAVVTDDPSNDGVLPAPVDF
YopH inh = YopH (Yersinia) phosphatase inhibition | inhibition, %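 (about 10 µM by stock and volumes)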 | hit rate 0.16% among 140,000 | AID 898 | fluorescence Ex485/Em525;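 active = inhibition of 50% or more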;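 note: controls were vehicle for no effect and minimum signal wells for full effect; inactives centre near -20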
Mtb H37Rv = M. tuberculosis H37Rv growth inhibitors, H37Rv strain (AID 1626); hit rate 0.95% among 220,000; one-dose inhibition, % at 10 µM; IC50 in µM for titrated hits; M. tuberculosis H37Rv growth inhibition; higher % means a stronger effect;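 active = confirmed in a dose series; inconclusive = inhibition above 80% but not taken into the dose series; inactive = below 80% or under 30% at every dose of the series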;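 note: bacteria incubated seven days before Alamar blue readout; 0% = bacteria only wells and 100% = bacteria with antibiotic wells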
Arbovirus anti repeat = also measured in Arbovirus anti; calls as there; inhibition, %; measured here: 10K subset replicate screen; many hits read low in the repeat;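 first of two repeat runs on a subset; 0% = infected and 100% = uninfected wells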
Starred values were filed as active, the others as inactive; ? = inconclusive; / = no result given. Not all compounds are listed. The share of hits here may be higher or lower than overall.

SMILES	Mtb bLac sens	Arbovirus anti	RecA splice inh	YopH inh	Mtb H37Rv	others
O=C(CNC(=O)c1cccs1)NCC(=O)OCc1ccccc1Cl	4	13	-1.4	-4	-6%
C=CCSc1nc2c(c(=O)[nH]c(=O)n2C)n1Cc1ccccc1	-2	/	3.4	/	/
Cc1cc(C(=O)N/N=C/c2sc(N3CCOCC3)nc2-c2ccccc2)c(C)o1	2	7	-1.4	/	-4%
CC(CN1CCOCC1)OC(=O)Cc1ccc(Cl)cc1 (stereo not given)	-11	5	-5.6	/	4%
CC(C)CCn1nc(C(=O)OC(C)C(=O)NC(N)=O)c2ccccc2c1=O (stereo not given)	-3	3	1.2	-38	0%
C=C1c2ccccc2NC(=O)N1c1ccc(C)cc1	-13	-2	17	8	-1%
O=C(O)CCC(=O)Nc1cccc(-c2csc(-c3ccccc3)n2)c1	3	4	3.3	/	-1%
Cc1c(NC(=O)CN(c2ccc(F)cc2)S(=O)(=O)c2ccccc2)c(=O)n(-c2ccccc2)n1C	-12	/	-0.9	/	/
CCOc1ccc(CCNc2nc3ccccc3n3cnnc23)cc1OCC	70	/	0.4	/	25%
CCN(CC)CCCN=C(C)c1c(O)n(-c2ccc(C)cc2)c(=O)[nH]c1=O	-11	0	-0.9	-50	1%
COc1cc(S(=O)(=O)Nc2ccccc2)ccc1NC=O	6	4	-0.2	-11	-3%
COCCNC(=O)C(c1c[nH]c2ccccc12)N(C(=O)c1snc(C(N)=O)c1N)c1cccc(OC)c1 (stereo not given)	-6	15	0.7	/	4%
CN(C)C(=O)c1coc2nc3ccccc3nc12	1	/	-5.3	/	-7%
CNc1oc(-c2cccs2)nc1C#N	-14	-2	-1.6	-33	/
O=C(N=C1SC2CS(=O)(=O)CC2N1c1ccc(F)c(Cl)c1)C1CC1 (stereo not given)	-3	/	0.3	/	/
CCOC(=O)C1CCCN(C(=O)c2cc3c(-c4cccc(OC)c4)nn(C)c3s2)C1 (stereo not given)	-5	-21	/	-19	7%
CCc1ccc(C(=O)NC(C(=O)NCC2CCCO2)C(C)C)cc1 (stereo not given)	-10	6	-1.3	/	-2%
O=C(CCCCn1c(=O)c2ccccc2n(CC(=O)NC2CCCC2)c1=O)NCc1ccco1	1	12	-3.2	-39	-2%
O=c1cc(CN2CCN(c3ccccc3F)CC2)c2cc(O)c(-c3ccccc3)cc2o1	0	-8	-4.0	61*	9%
CC(Oc1ccccc1F)C(=O)NNC(=O)CC(C)c1ccccc1 (stereo not given)	-9	/	-3.1	/	/
O=C(CCCNC(=O)/C(=C\c1ccc(F)cc1)NC(=O)c1ccccc1)OCc1ccccc1	2	-4	-0.6	-38	2%
Cc1cc(C)n(CCN(C)C(=O)CCc2nnc(-c3ccc4c(c3)OCO4)o2)n1	-1	8	-3.8	/	-8%
CC(=O)NC(=S)Nc1ccc(NC(=O)COc2ccc(Cl)cc2)cc1	96	-8	-2.1	7	40%
CC(=O)Nc1ccc(S(=O)(=O)NC(C(=O)O)C(C)O)cc1 (stereo not given)	-6	/	-0.1	/	-11%
CN1CC(=O)N(CC(=O)Nc2ccc(N(C)C)cc2)c2ccccc2C1=O	1	5	-1.7	-18	-8%

Arranged by length of the SMILES (largest number first): some entries from above.
SMILES	Mtb bLac sens	Arbovirus anti	RecA splice inh	YopH inh	Mtb H37Rv	others
COCCNC(=O)C(c1c[nH]c2ccccc12)N(C(=O)c1snc(C(N)=O)c1N)c1cccc(OC)c1 (stereo not given)	-6	15	0.7	/	4%
CCOC(=O)C1CCCN(C(=O)c2cc3c(-c4cccc(OC)c4)nn(C)c3s2)C1 (stereo not given)	-5	-21	/	-19	7%
O=C(N=C1SC2CS(=O)(=O)CC2N1c1ccc(F)c(Cl)c1)C1CC1 (stereo not given)	-3	/	0.3	/	/
O=C(O)CCC(=O)Nc1cccc(-c2csc(-c3ccccc3)n2)c1	3	4	3.3	/	-1%
CCOc1ccc(CCNc2nc3ccccc3n3cnnc23)cc1OCC	70	/	0.4	/	25%

Additional structures
SMILES	Mtb bLac sens	Arbovirus anti	RecA splice inh	YopH inh	Mtb H37Rv	others
CC1CCN(C2(O)C(=O)Nc3ccc([N+](=O)[O-])cc32)CC1 (stereo not given)	-9	9	-1.0	-19	-9%
CC(C)C(=O)OC1CCS(=O)(=O)c2sccc21 (stereo not given)	1	6	0.0	/	2%
CCOc1cc(C(=O)NC(=S)Nc2nc(C)cc(C)n2)cc(OCC)c1OCC	5	/	-0.4	/	/
COc1ccc(N(CC(=O)NCCSCc2ccco2)S(=O)(=O)c2ccc(C)cc2)cc1	6	-7	0.3	/	-4%
CCCn1c(=N)n(CC(O)COc2ccc(C)cc2)c2ccccc21 (stereo not given)	-2	/	-0.1	/	3%
O=C(COC(=O)c1cc([N+](=O)[O-])ccc1NCCO)c1ccccc1	10	-5	-0.7	-21	-3%
COc1ccc(S(=O)(=O)N(CC(=O)N2CCN(c3ccccc3OC)CC2)c2ccccc2)cc1	-3	-8	/	-8	/	Arbovirus anti repeat=-10
O=C(O)CCC(=O)N1N=C(c2ccccc2)CC1c1cccs1 (stereo not given)	-1	/	-0.6	/	/
Brc1cccc(-c2nc(-c3ccncc3)no2)c1	5	6	4.2	-23	6%	Arbovirus anti repeat=3
COc1ccc(/C(N)=N/OC(=O)c2ccc(C)c([N+](=O)[O-])c2)cc1	-5	-1	-2.5	-18	-2%
COc1cc(OC)cc(C(=O)NCC(=O)Nc2ccc(C)c(Cl)c2)c1	-7	/	2.7	/	/
COc1cc(OC)c(C(=O)Nc2cccnc2)cc1OC	-5	/	-3.8	/	/
Cc1ccc(Cl)cc1NS(=O)(=O)Cc1ccccc1	-5	/	0.3	/	/
COCCNC(=O)C(=O)NNS(=O)(=O)c1ccc2ccccc2c1	4	7	-4.3	/	0%
CCN1CCN(CC(=O)Nc2c(OC)cccc2OC)CC1	3	/	-1.1	/	/
CC(/C=N/NC(=O)c1cc(C(C)C)[nH]n1)=C\c1ccccc1	0	3	2.3	-12	6%
COc1ccc(NC(=O)CN(C)C(=O)CCNS(=O)(=O)c2ccc(Br)cc2)cc1	0	/	-2.0	/	/
Cc1cc(C)nc(/N=C(/NC(=O)c2ccccc2)Nc2ccccc2)n1	-7	8	-0.4	-20	8%
COc1cnc(-c2ccccn2)nc1Sc1ccc(Cl)cc1	80	-24	2.1	-46	?
Cc1[nH]nc(SCC(=O)N(C)c2ccccc2)c1[N+](=O)[O-]	-7	-7	-2.5	/	0%
CCn1c(NC(=O)c2ccc(F)cc2)c2ccccc2nc1=O	6	-1	7.9	-41	3%
Cc1ccc2c(c1)C1(OCCCO1)C(=O)N2CC#N	2	/	0.5	/	/
COc1cccc(N=CC2=C(O)CC(C)(C)CC2=O)c1	-4	-13	5.9	-36	18%
O=C(COc1ccc(C(=O)c2ccccc2)cc1)NC1CCCCC1	-4	-2	3.0	-19	10%
O=[N+]([O-])c1ccc2nc(CCCc3nc4ccc([N+](=O)[O-])cc4[nH]3)[nH]c2c1	-2	11	/	/	-5%

The final 4 compounds of the section before are carried over, then new ones follow:
SMILES	Mtb bLac sens	Arbovirus anti	RecA splice inh	YopH inh	Mtb H37Rv	others
Cc1ccc2c(c1)C1(OCCCO1)C(=O)N2CC#N	2	/	0.5	/	/
COc1cccc(N=CC2=C(O)CC(C)(C)CC2=O)c1	-4	-13	5.9	-36	18%
O=C(COc1ccc(C(=O)c2ccccc2)cc1)NC1CCCCC1	-4	-2	3.0	-19	10%
O=[N+]([O-])c1ccc2nc(CCCc3nc4ccc([N+](=O)[O-])cc4[nH]3)[nH]c2c1	-2	11	/	/	-5%
Cc1ccc(C(O)P(=O)(OCCC(C)C)c2ccc(N(C)C)cc2)cc1 (stereo not given)	6	/	4.9	/	/
COc1ccc(-c2nnc(SC(C)C(=O)Nc3nccs3)n2-c2ccccc2)cc1OC (stereo not given)	-6	0	0.8	2	3%
Cc1ccc(NC(=O)CNc2ccc(Cl)c(Cl)c2)cc1S(=O)(=O)N(C)C	9	-27	17	-11	10%
CSc1ccccc1NC(=O)Nc1ccccc1	1	5	0.2	-23	-1%
COc1ccc(C(=O)CCC(=O)Nc2ccc(Cl)cc2)cc1	4	/	-1.1	/	/
CCOc1ccc(/C=C2/C(=O)NC(=O)N(CCc3ccc(F)cc3)C2=O)cc1	5	-1	-2.5	-25	-8%
Cc1cc([N+](=O)[O-])nn1CC(=O)NCCc1c[nH]c2ccccc12	-5	15	0.4	/	-1%
Cc1c(C(=O)N(C)Cc2ccccc2)oc2ccc(S(=O)(=O)N3CCCC3)cc12	-3	-2	1.1	-53	2%	Arbovirus anti repeat=-3
NNC(=O)c1cc(-c2ccc(N)cc2)nc2ccc(Br)cc12	-10	/	3.3	/	6%
COc1cccc(NC(=O)C(C)Oc2ccccc2)c1 (stereo not given)	5	-2	3.3	-6	-7%
COc1cccc(C2NC(=S)NC(C)=C2C(=O)c2ccccc2)c1OC (stereo not given)	-7	-8	3.9	/	-8%
COc1ccc(C)cc1NC(=O)c1cc(S(=O)(=O)N2CCOCC2)cn1C	0	/	-1.2	/	/
COc1ccc(C(=O)NCCn2cc(SCC(N)=O)c3ccccc32)cc1	-5	/	0.7	/	-3%
Cc1cccc(N2CN(Cc3ccco3)CNC2=S)c1	-2	8	-1.9	-20	8%
O=c1cc(N2CCCCCC2)[nH]c(=O)n1-c1ccccc1Cl	7	9	6.7	/	8%
CC(=O)c1ccc(NS(=O)(=O)c2cc3c(cc2C)N(C)CCO3)cc1	1	/	-8.2	/	/
Cc1ccc(CN2C3=NCCCN3c3ccccc32)cc1	1	-18	/	-13	-5%
COc1ccc(Nc2ccncc2[N+](=O)[O-])cc1	-3	8	5.9	/	-1%
COC(=O)c1nn(-c2ccccc2)c(-c2ccccc2)c1C(=O)c1ccccc1	-7	9	13	-21	-5%
COC(=O)c1[nH]c2c(c1C)C(=O)CC(c1cc(OC)c(OC)c(OC)c1)C2 (stereo not given)	-2	/	-3.2	/	/
OCc1cn(-c2ccccc2)nc1-c1cc2ccccc2o1	13	23	0.1	/	9%
Cc1ccc2c(C(=O)CN3CCC4(CC3)OCCO4)c(C)[nH]c2c1	-2	1	/	-30	-8%
CCOC(=O)/C(=N\Nc1ccccc1)N1CC1	-2	-22	-0.7	/	?
O=C(COC(=O)Cc1cccs1)Nc1ccccc1Cl	2	4	0.0	/	-2%
Cc1ccccc1NC(=O)c1nnn(-c2ccc3c(c2)OCCO3)c1N	-1	/	4.0	/	/

Filtered by structure, those above with two or more sulfur atoms
SMILES	Mtb bLac sens	Arbovirus anti	RecA splice inh	YopH inh	Mtb H37Rv	others
O=C(N=C1SC2CS(=O)(=O)CC2N1c1ccc(F)c(Cl)c1)C1CC1 (stereo not given)	-3	/	0.3	/	/
CC(C)C(=O)OC1CCS(=O)(=O)c2sccc21 (stereo not given)	1	6	0.0	/	2%
COc1ccc(N(CC(=O)NCCSCc2ccco2)S(=O)(=O)c2ccc(C)cc2)cc1	6	-7	0.3	/	-4%
COc1ccc(-c2nnc(SC(C)C(=O)Nc3nccs3)n2-c2ccccc2)cc1OC (stereo not given)	-6	0	0.8	2	3%

The results go on:
SMILES	Mtb bLac sens	Arbovirus anti	RecA splice inh	YopH inh	Mtb H37Rv	others
Cc1cc[n+](-c2[nH]c(=O)sc2/C=N/N=C(\[O-])c2ccccc2)cc1	-3	/	3.6	/	6%
CC(=O)Oc1cc2oc(=O)cc(C)c2cc1Cl	4	/	-79	/	-2%
CN(C(=O)COC(=O)c1cc(S(=O)(=O)N2CCOCC2)ccc1F)C1CCS(=O)(=O)C1 (stereo not given)	-2	/	-2.6	/	/
CC(C)(C)c1ccc(OCC(=O)NN2Cc3ccccc3C2=N)cc1	3	-7	-2.1	/	-5%
CCC1Cc2c(nc(N)c3c(N)nc(N4CCOCC4)c(C#N)c23)O1 (stereo not given)	5	3	-23	/	7%
COc1cccc(NS(=O)(=O)c2cc(C)ccc2OC)c1	-4	-3	21	30	0%
COCCNC(=O)COc1ccc(C)cc1C(=O)c1cc(C#N)c(=O)n(C2CC2)c1	1	3	2.5	/	-3%
O=C(NCCN1C(=O)S/C(=C\c2cccnc2)C1=O)c1ccc(S(=O)(=O)N2CCCC2)cc1	-3	/	12	/	11%
COc1ccc(OC)c(Cc2nnc(CCC(=O)NCc3nc4ccccc4s3)o2)c1	-11	-3	-0.7	/	0%
CCOc1ccc(NC(=O)Nc2nc(SCC)ns2)cc1	-3	/	0.5	/	/
Cc1ccc(NS(=O)(=O)c2ccc3c(c2)NC(=O)CO3)cc1	-1	/	-0.8	/	/
Cc1ccc(-c2nnc3c4ccccc4c(C)nn23)cc1S(=O)(=O)N1CCN(C)CC1	13	/	/	-4	/
O=C(O)c1ccc(COc2c(F)c(F)c(F)c(F)c2F)o1	-3	2	7.3	-17	2%
CCc1noc(C)c1C(=O)N1CCN(S(=O)(=O)c2ccc(Cl)s2)CC1	-7	/	0.1	/	/
Cc1ccc2nc(C)c3c(c2c1)N(c1ccc(F)cc1)CC3	-5	/	-1.5	/	11%

Compound activity deposited in PubChem by several laboratories.
